High-throughput results as filed in PubChem BioAssay.
MgrA DNA FP: modulators of Staphylococcus aureus MgrA DNA binding; AID 602314; fluorescence polarization; 0.13% of 84,000 active; inhibition, %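 (about 10 µg/mL by stock and volumes)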;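 active = above 50% in either of two replicates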;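 also: 0% = protein plus DNA without compound and 100% = DNA alone without protein; higher means less MgrA bound to DNA so lower polarization; one replicate is shown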
Sa helicase inh: S. aureus DNA helicase inhibition. purified S. aureus helicase, fluorescence unwinding assay; about half of the hits fall short of the stated cut. inhibition, %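 (tested at about 80 µM)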. 0.05% of 120,000 active. AID 485395;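 active = both duplicates at 50% or more, or one of them with a favoured structure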;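 also: 0% = mean of negative control wells and 100% = mean of positive control wells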
Active calls of the source: *; · = not tested or not shown; & = joins results of further samples.

SMILES	MgrA DNA FP	Sa helicase inh
C/C(=N\NC(=O)c1cc(-c2ccccc2Cl)n[nH]1)c1ccco1	·	-1.0
Nc1nc(-c2cc3cc(Br)ccc3oc2=O)cs1	·	15.0
O=C(O)C1CCN(c2ncnc3c2sc2cccc(F)c23)CC1	·	10.0
N#Cc1ccc(COC(=O)C2=NNC(=O)CC2)cc1	·	19.0
C=CCn1c(C)nnc1SCc1cc(=O)oc2cc(NC(C)=O)ccc12	·	11.0
O=C(CS(=O)(=O)c1nc(-c2ccccc2)cn1-c1ccc(Cl)cc1)Nc1ccccc1	0.8	11.0
NC1=NC(=Nc2ccc(S(N)(=O)=O)cc2)c2ccccc21	·	-9.0
COc1ccc(CC(C(=O)O)c2ccccc2)cc1 (stereo not drawn)	0.8	-5.0
O=c1[nH]cnc2c1[nH]c1ccccc12	-2.1	18.0
CCc1ccc(S(=O)(=O)Nc2ccc(N3CCN(C)CC3)cc2)cc1	-0.8	·
CC1=C(C)CC(C(=O)Nc2ccc3c(c2)oc2ccccc23)C(C(=O)O)C1 (stereo not drawn)	-2.7	9.0
COc1ccc2ccc(OC)c(/C=C3/NC(=O)NC3=O)c2c1	0.3	9.0
O=C(/C=C/c1cccs1)NC1CCCC1	·	-3.0
CCOc1ccccc1-c1noc(CCCC(=O)Nc2cc(C(F)(F)F)ccc2Cl)n1	1.8	-20.0
Cc1cc(C)cc(OC(=O)c2cccnc2)c1	2.2	-6.0
CCCCC(CC)C1OCC(C)O1 (stereo not drawn)	·	-19.0
COC(=O)/C(=C(/O)CSc1nnc(C)n1C1CCCCC1)c1nc2ccccc2[nH]1	·	0.0
O=C(O)c1ccc(-c2n[nH]c(=O)c3ccccc23)cc1	·	10.0
CC1CCN(Cc2nc(N)nc(Nc3ccc(Cl)cc3)n2)CC1	·	9.0
Cc1ccc(OCc2ccc(C(=O)N(C)C3CCCCC3)o2)cc1C	1.4	-2.0
CC(C)(C)c1cc(C(=O)N2CCN(c3ccc(C(F)(F)F)cn3)CC2)n(Cc2ccc(F)cc2)n1	2.0	·
Cc1ccc(-c2nn(-c3ccccc3)cc2C(=O)Nc2ccc3c(c2)OCO3)o1	·	-2.0
O=C1Nc2ccccc2/C1=N/n1c(-c2ccc(Cl)cc2)n[nH]c1=S	·	7.0
COCC(=O)NCCc1nc2ccccc2[nH]1	·	6.0
Cc1ccccc1C(=O)NCCC(C)C	-0.7	0.0
Further structures follow.
SMILES	MgrA DNA FP	Sa helicase inh
COc1ccccc1CNc1ccccc1F	-1.8	5.0
CC1(C)O[C@@H]2C[C@H]3[C@@H]4CCC5=CC(=O)CC[C@]5(C)[C@@]4(F)[C@@H](O)C[C@]3(C)[C@]2(C(=O)CCl)O1	4.3	·
CCCCNC(=O)c1ccc2c(c1)NC(=O)C(C)N2 (stereo not drawn)	·	-39.0
CCc1cc(=O)oc2c(C)c(OCC(=O)Nc3ccc4c(c3)OCO4)ccc12	·	8.0
CC(N=c1ccccn1C(=O)Nc1ccc(Cl)c(Cl)c1)c1ccco1 (stereo not drawn)	·	14.0
CCOC(=O)N1CCN(C(=O)CN(C)S(=O)(=O)c2cc(Cl)ccc2Cl)CC1	-2.9	8.0
O=C(NC(O)C(=O)c1cccs1)c1ccncc1 (stereo not drawn)	·	-37.0
N#C/C(=C\c1cc(Br)cs1)C(=O)Nc1ccc(F)c(Cl)c1	-1.0	·
O=C1c2cccc3cccc(c23)C(=O)N1CCCc1nc2sc3c(c2c(=O)[nH]1)CCCC3	0.2	·
COc1cc(C(=O)NCc2nnc(SCC(=O)NC3CCCCC3)o2)cc(OC)c1OC	·	14.0
O=C(CNCCO)N1CCN(S(=O)(=O)c2ccc3ccccc3c2)CC1	·	14.0
CC1CCN(S(=O)(=O)c2ccc3c4c(cccc24)C(=O)N3)CC1	·	9.0&9.0
COc1ccc(C(=O)CSc2nc3ccc(Cl)cc3[nH]2)cc1OC	-1.4	·
CC1c2ccsc2CCN1C(=S)NC(=O)c1cccs1 (stereo not drawn)	2.8	·
COc1ccc(NC2CS(=O)(=O)CC2OC(=O)c2ccc(F)cc2)cc1 (stereo not drawn)	-1.4	13.0
COc1ccc(N)cc1C#N	·	-8.0
Cc1ccc(NC(=O)C2=C(O)CCn3c2nc2ccccc23)cc1	1.3	7.0
O=C(CSc1nncn2c1cc1occc12)NCCc1ccccc1	4.9	9.0
CC(=O)n1nc(-c2ccccc2)nc1N	7.3	7.0
Cc1ccc2c(c1)c1c(n2C)C(O)CCC1 (stereo not drawn)	2.0	7.0
O=C(COC(=O)/C=C/c1ccco1)Nc1ccccc1C(F)(F)F	-0.9	-13.0
Cc1cccc(N2CC(c3nc4ccccc4[nH]3)CC2=O)c1 (stereo not drawn)	1.9	-14.0
Fc1cc(F)c2c(c1)sc1nnc(-c3ccccc3)n12	·	9.0
Cc1ccc(NC(=S)SCCC(N)=O)cc1	·	5.0
O/N=C/Cc1[nH]c2ccccc2c1-c1ccccc1	·	6.0
Other records.
SMILES	MgrA DNA FP	Sa helicase inh
CC(C)Cc1cc(C(=O)NCCCN2CCOCC2)no1	·	2.0
CC(C)CCSc1nnc(N)s1	-2.6	·
O=C1CSC(c2ccccc2)N1C1CC1 (stereo not drawn)	·	11.0
Cc1cc(C)c(S(=O)(=O)Nc2cccnc2)c(C)c1	·	6.0
COc1ccc(-c2csc3ncnc(NCCSCc4ccco4)c23)cc1	·	-6.0
CCc1ccc(CNC(=S)Nc2ccc3nc(N4CCCC4)cc(C)c3c2)cc1	-4.1	5.0
O=S1(=O)CCN2N=C(C3CC3)SC2=N1	·	30.0
CCc1c(C)nn2c1n1nc(C)c(CC)c1n1nc(C)c(CC)c21	·	-7.0
Cc1cc(C(=O)Cn2cnc3ccc(Cl)cc3c2=O)c(C)n1CC1CCCO1 (stereo not drawn)	·	-14.0
O=C(O)c1ccc(CSc2nc3ccccc3[nH]2)cc1	·	0.0
O=C(c1cccnc1)N1N=C(C(F)(F)F)CC1(O)c1ccncc1 (stereo not drawn)	2.0	1.0
Cc1ccccc1/C=N/N=C1/NC(=O)CCS1	·	-19.0
O=C(Nc1ccccc1C(=O)NC1CCCCNC1=O)c1cccc(C(F)(F)F)c1 (stereo not drawn)	-1.4	·
Cc1cc(S(=O)(=O)Nc2ccsc2C(N)=O)c(Cl)cc1Cl	-2.6	·
CCC1(C)NC(=S)N(c2ccccc2)N1 (stereo not drawn)	1.6	2.0
CCC(=O)Nc1nc(-c2ccc(C)cc2C)cs1	·	2.0
CCOC(=O)C1CCN(C(=O)c2cnn(-c3ccc(OC)cc3)c2C)CC1	·	16.0
Cc1c(C(=O)Nc2ccc(F)cc2F)sc2ncnc(N3CCC(C)CC3)c12	0.5	10.0
CCN(CC)C(=O)CSc1nnc(-c2ccco2)n1CC1CCCO1 (stereo not drawn)	-1.8	-1.0
CC(=O)N(CCCN1CCOCC1)Cc1ccncc1	-1.6	-8.0
C=C1SC(Nc2ccc(C(=O)OCC)cc2)=NC1(CC)CC	-0.7	·
Cc1nn(-c2ccccc2)c(C)c1/C=N/n1c(=S)[nH]nc(C)c1=O	·	-13.0
O=C(CN1CCCc2ccccc21)N/N=C/c1ccccc1	·	21.0
O=C(O)CCc1ccc(-c2ccccc2)n1-c1cccc(O)c1	2.2	-4.0
NC(=O)c1cc(-c2ccc(COc3ccccc3)cc2)nc2ccccc12	·	8.0

Grouped by structure: those above with a cyano group
SMILES	MgrA DNA FP	Sa helicase inh
N#Cc1ccc(COC(=O)C2=NNC(=O)CC2)cc1	·	19.0
N#C/C(=C\c1cc(Br)cs1)C(=O)Nc1ccc(F)c(Cl)c1	-1.0	·
COc1ccc(N)cc1C#N	·	-8.0

(list continues)
SMILES	MgrA DNA FP	Sa helicase inh
CCc1ccccc1NC(=S)N(Cc1ccco1)C(C)c1ccco1 (stereo not drawn)	·	8.0
CCCCCCCOC(=O)C1=C(C)NC(=O)NC1c1cc(OC)c(OC)c(OC)c1 (stereo not drawn)	-0.2	·
CCN1c2cccc3cccc(c23)S1(=O)=O	·	8.0
Cc1cc(C(=O)O)c2cc(Br)ccc2n1	·	25.0
Cc1cccc(-c2nsc(SCC(=O)OCc3ccccc3)n2)c1	1.5	0.0
Cn1c(=O)c(=O)n(C)c2cc(S(=O)(=O)N3CC(=O)N(CCc4ccccc4)C(=O)C3)ccc21	·	-26.0
O=C(NS(=O)(=O)c1ccc(Br)cc1)c1ccccc1O	·	2.0
Cc1ccc(C)c(N2C(=O)c3ccc(C(=O)N4CCCN(C)c5nc6ccccc6nc54)cc3C2=O)c1	·	7.0
O=C(c1ccc2c(Cl)c3c(nc2c1)CCC3)N1CCCC1	-0.8	12.0
COc1ccc(C(=O)n2c(SC)nc3ccccc32)cc1OC	·	-17.0
COc1cc(/C=C2\C(=O)NC(=S)N(c3ccc(Cl)cc3)C2=O)c([N+](=O)[O-])cc1OC	8.7	·
S=C=NCCn1ccc2ccccc21	·	21.0
Cc1ccc(C(=O)OC2CCCN(C)C2)cc1 (stereo not drawn)	-3.6	2.0
O=C1CSC2(C(=O)N(CN3CCCCC3)c3ccccc32)N1c1ccccc1 (stereo not drawn)	0.9	7.0
CN1c2ccccc2C(C)(C)C12CC(c1ccc(S(=O)(=O)N(C)C)cc1)=NO2 (stereo not drawn)	·	13.0
Nc1cccc(-c2nc3ccc(C(=O)c4ccccc4)cc3[nH]2)c1	·	18.0
O=C(Nc1cccc(Br)c1)C1C(c2ccccc2)=C1c1ccccc1	-4.8	8.0
CCOC(=O)N1CCN(C(=O)c2ccc3c(=O)n(CCC4=CCCCC4)c(=S)[nH]c3c2)CC1	·	-2.0
O=C(CSc1ccccc1)Nc1ccncc1	2.2	6.0
O=c1[nH]nc(Cc2ccncc2)c2ccccc12	-15.8&3.3	-10.0
COC(=O)c1cc(CSc2ncnc3sccc23)oc1C	·	2.0
Cc1cc(C)nc(NNC(=S)NC2CC3CCC2C3)n1 (stereo not drawn)	·	16.0
C/C(=N\NC(=O)CSc1ncccn1)c1ccc(C)cc1	·	-16.0
C=CCOc1ccc(C(=O)N(Cc2ccccc2)C2CCS(=O)(=O)C2)cc1 (stereo not drawn)	·	11.0
CC1=Nc2nc(N3CCCC3)c(C#N)c3c4c(nc(c23)N1)N(c1ccc(S(N)(=O)=O)cc1)C(=O)C4	·	8.0
Later entries:
SMILES	MgrA DNA FP	Sa helicase inh
CCOc1cccc2cc(C(=O)N3CCc4ccccc43)c(=O)oc12	6.3	17.0
CCc1noc(N)c1C(=O)Nc1ccc(C)c(Cl)c1	·	9.0
Cc1cc(C)c2c(N)c(C(=O)NN3CC(=O)N(c4ccccc4)CC3=O)sc2n1	·	9.0
Cc1cc(-c2ccc(C)c(S(=O)(=O)N3CCN(C4CCCCC4)CC3)c2)n[nH]1	·	-2.0
CCc1c(C)nc(SCC(=O)N2CCN(c3ccccc3)CC2)[nH]c1=O	0.7	3.0
CCOC(=O)C1=C(C)NC(=O)NC1c1cn(-c2ccccc2)nc1-c1ccc(OC)cc1 (stereo not drawn)	-2.1	·
CCOC(=O)Cn1c(=O)c(C(=O)NC(=O)OCC)cn(Cc2ccccn2)c1=O	·	-30.0
CC(C)COc1ccc(C(O)c2ccccc2)cc1 (stereo not drawn)	-1.6	-5.0
Clc1cc2c(c(CSc3nnc(-c4ccco4)n3-c3ccccc3)c1)OCOC2	·	-5.0
Cc1ccc(S(=O)(=O)C(F)(F)F)cc1N	0.0	0.0
NNC(=O)c1cc2sc(Cl)cc2[nH]1	·	-1.0
Cn1c(O)c(/C=C/c2ccc3ccccc3n2)c(=O)[nH]c1=O	·	-98.0
CCC(=O)c1cn(CC(=O)N2CCOCC2)c2ccccc12	·	-17.0
CC(=O)CSC(=O)c1c(-c2c(Cl)cccc2Cl)noc1C	-1.5	·
Cc1cc(NC(=O)CSc2nc3ccccc3s2)no1	·	2.0
c1ccc(CC2CCCNC2)cc1 (stereo not drawn)	-1.4	0.0
CNC(=O)c1cc2oc3ccccc3c2n1C	·	-5.0
CCN(Cc1cc(=O)n2c(C)csc2n1)c1ccc(OC)cc1	·	11.0
COc1ccc(/C=N/N2C(=O)C3C=CC=CC3N=C2C)cc1OC (stereo not drawn)	·	9.0
O=C(O)C1CC(=O)N(c2cccc(C(F)(F)F)c2)C1 (stereo not drawn)	·	9.0
Cc1nnc(SC(=O)N2c3ccccc3Sc3ccccc32)s1	1.2	12.0
CCOCCSc1nnc2n(-c3ccccc3)c(=O)c3ccccc3n12	·	-10.0
Nc1nc(-c2ccccc2)c(-c2ccccc2)o1	0.5	-8.0
CC(=O)Nc1cccc(-c2csc(C)n2)c1	·	36.0
Cc1ccccc1NC(=O)CS(=O)(=O)c1ccccc1	0.9	-9.0
O=c1[nH]c2c(s1)C1c3ccccc3OC3CCCC(S2)C31 (stereo not drawn)	·	-23.0
N#CC(C#N)=Cc1cc2ccccc2nc1N1CCCCC1	·	-41.0
COc1cc(C(=O)Nc2ccc(-c3nc4ccccc4s3)c(O)c2)ccc1OCc1ccc(Cl)cc1	-0.4	·
CCOC(=O)CN(C(=O)c1ccccc1[N+](=O)[O-])C(C)(C)C	-3.0	·

Six compounds already listed, ordered by the number in Sa helicase inh, high to low:
SMILES	MgrA DNA FP	Sa helicase inh
CC(=O)Nc1cccc(-c2csc(C)n2)c1	·	36.0
CCOc1cccc2cc(C(=O)N3CCc4ccccc43)c(=O)oc12	6.3	17.0
CCN(Cc1cc(=O)n2c(C)csc2n1)c1ccc(OC)cc1	·	11.0
Cc1ccc(S(=O)(=O)C(F)(F)F)cc1N	0.0	0.0
Cc1cc(-c2ccc(C)c(S(=O)(=O)N3CCN(C4CCCCC4)CC3)c2)n[nH]1	·	-2.0
CNC(=O)c1cc2oc3ccccc3c2n1C	·	-5.0

As a working copy, part of the list above:
SMILES	MgrA DNA FP	Sa helicase inh
CCOc1cccc2cc(C(=O)N3CCc4ccccc43)c(=O)oc12	6.3	17.0
CCc1noc(N)c1C(=O)Nc1ccc(C)c(Cl)c1	·	9.0
Cc1cc(C)c2c(N)c(C(=O)NN3CC(=O)N(c4ccccc4)CC3=O)sc2n1	·	9.0
Cc1cc(-c2ccc(C)c(S(=O)(=O)N3CCN(C4CCCCC4)CC3)c2)n[nH]1	·	-2.0

Only part of the results is shown (hit frequency here may not be typical).
